High-throughput results from PubChem BioAssay.
Lassa entry inh – inhibitors of Lassa virus binding or cell entry. Lassa virus pseudotype entry inhibition, cell reporter; control for the full effect not named in the record. Potency, µM (top dose mostly 37.9 µM), for the others: at the top dose activity change, negative = inhibition, most hits filed as inhibitors. hit rate 1.2% among 300,000; active means well fitted inhibition curve with a large enough effect; inconclusive means small, poorly fitted or top-dose-only effect, or effect the other way; inactive means flat fitted curve, though single readings scatter; tested in HEK293 cells; also: % is scaled to controls: 0 for no effect and ±100 for the full control effect; nearly all actives have a fitted effect of over 50% in size; luciferase read-out
Marburg entry inh – inhibitors of Marburg virus binding or cell entry; Marburg virus pseudotyped entry inhibition, cell reporter; control for the full effect not named in the record; about a third of the inactives were read at about 46 µM; Potency, µM (doses to about 37.8 µM), inactives show at the top dose activity change, negative = inhibition, actives largely listed as inhibitors; AID 540276; hit rate 1.8% among 300,000; active = well fitted inhibition curve with a large enough effect; inconclusive = small, poorly fitted or top-dose-only effect, or effect the other way; inactive = flat fitted curve, though single readings scatter; tested in HEK293 cells; about a fifth of its hits are not listed in these tables; also: % is scaled to controls: 0 for no effect and ±100 for the full control effect; luciferase read-out
Cruzain noTriton – inhibitors of Trypanosoma cruzi cruzain without detergent. hit rate 2.3% among 200,000. Potency, µM, inactives show max response, negative = inhibition, hits mostly inhibitors. purified cruzain, Z-FR-AMC fluorescence, no detergent;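 also: plate controls were enzyme without inhibitor for no effect and buffer without enzyme for full effect; nearly all actives have a fitted effect of over 40% in size; top concentration of the series not given in the record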
Target sequence (P25779 123-467 limits assumed): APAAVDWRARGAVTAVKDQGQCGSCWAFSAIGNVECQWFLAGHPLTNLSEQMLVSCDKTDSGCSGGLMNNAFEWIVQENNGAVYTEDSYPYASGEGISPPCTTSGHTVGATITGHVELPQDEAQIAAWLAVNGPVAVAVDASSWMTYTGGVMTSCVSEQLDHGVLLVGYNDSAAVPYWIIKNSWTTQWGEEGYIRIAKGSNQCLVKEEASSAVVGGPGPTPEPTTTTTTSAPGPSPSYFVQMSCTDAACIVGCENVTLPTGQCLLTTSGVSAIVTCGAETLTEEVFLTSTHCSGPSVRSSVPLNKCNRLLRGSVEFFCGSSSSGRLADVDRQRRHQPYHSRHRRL
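Purified cruzain at 1.5 nM, pre-incubated 15 min with compound at room temperature in 100 mM sodium acetate pH 5.5, 5 mM DTT, 0.00005% Triton X-100. Reaction started with 2 uM Z-FR-AMC; AMC fluorescence increase over 60 s gives rate.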
RE007 growth inh – less growth of the S. pombe RE007 Vpr strain. S. pombe RE007 Vpr strain, BacTiter-Glo ATP luminescence, 24 h; control for the full effect not named in the record. Potency, µM (titrated, usually from 92.2 µM), inactives show at the top dose activity change, negative = less growth. hit rate 0.21% among 360,000; active = well fitted falling curve with a large enough effect; inconclusive = small, poorly fitted or top-dose-only effect; inactive = no such curve, though single readings can be large or run the other way;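 also: % is scaled to controls: 0 for no effect and ±100 for the full control effect; nearly all actives have a fitted effect of over 50% in size; the assay follows cell death caused by Vpr and the record does not say whether a fall means rescue or toxicity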
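Fission yeast RE007 carrying one integrated HIV-1 vpr copy, seeded at OD 0.01 in PMG+AL medium with 23 nL pinned compound. Grown 24 h at 30 degrees; viability read by BacTiter-Glo luminescence after 5 min.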
SARS PLpro yeast – inhibitors of SARS-CoV papain-like protease in yeast. S. cerevisiae expressing SARS-CoV PLpro, growth rescue; control for the full effect not named in the record. Potency, µM (titrated, usually from 32.9 µM), for the others: at the top dose activity, positive = growth rescue. hit rate 0.19% among 330,000; active means well fitted rising curve with a large enough effect; inconclusive means small, poorly fitted or top-dose-only effect; inactive means no such curve, though single readings can be large or run the other way; also: 0% is about no effect; nearly all actives have a fitted effect of over 55% in size; growth read by luminescence after 48 h
2A StopGo – lowers the luciferase signal of an FMDV 2A StopGo reporter | human cells with a luciferase reporter of 2A StopGo recoding; control for the full effect not named in the record | Potency, µM (doses to about 57.9 µM), for the others: at the highest dose signal change, negative = less light | hit rate 1.2% among 410,000 | AID 1159524; active = well fitted falling curve with a large enough effect; inconclusive = small, poorly fitted or top-dose-only effect; inactive = no such curve, though single readings can be large or run the other way; tested in HEK293T cells; also: % is scaled to controls: 0 for no effect and ±100 for the full control effect; nearly all actives have a fitted effect of over 45% in size; luciferase light after 4 h
NS1 inh – influenza NS1 inhibition; S. cerevisiae slowed by influenza A NS1, growth recovery by OD600; Potency, µM (titrated, usually from 46.1 µM), inactives show at the highest dose activity, positive = more growth; hit rate 0.4% among 270,000; active means well fitted rising curve with a large enough effect; inconclusive means small, poorly fitted or top-dose-only effect; inactive means no such curve, though single readings can be large or run the other way; also: nearly all actives have a fitted effect of over 50% in size
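Read-out: OD600 growth recovery of NS1-expressing budding yeast. Cells grown overnight at 30C in -URA glucose medium, washed, resuspended and diluted 1:100 in 2% galactose assay medium, pH 6.0. Same strain lacking NS1 served as positive control.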
Cruzain Triton – blocks cruzain activity in presence of Triton detergent; hit rate 0.43% among 200,000; purified cruzain, Z-FR-AMC fluorescence, 0.01% Triton; Potency, µM, without a hit: max response, negative = inhibition, actives largely listed as inhibitors; P25779;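 also: plate controls were neutral wells for no effect and buffer without enzyme for full effect; nearly all actives have a fitted effect of over 40% in size; top concentration of the series not given in the record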
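Detergent-containing arm of a paired screen for aggregation-based inhibition: 0.01% Triton X-100 present. Cruzain at 1.5 nM cleaved 2 uM Z-FR-AMC at pH 5.5 with 5 mM DTT; AMC fluorescence gain over 60 s measured activity.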
* = called active by the depositor; ? = inconclusive; . = not tested or not shown; [ ] = another dose, or the depositor's remark. Unless noted, calls follow the shape of the dose curve; as a rule, active = well fitted curve in the direction sought with a large enough effect; inconclusive = small, poorly fitted or top-dose-only effect, or another doubt; inactive = no such curve, though single readings can be large; an effect the other way counts as inactive or inconclusive. Potency is read from the fitted curve at half-maximal effect.

compound	Lassa entry inh	Marburg entry inh	Cruzain noTriton	RE007 growth inh	SARS PLpro yeast	2A StopGo	NS1 inh	Cruzain Triton
COC(=O)Cc1[nH]nc2c1C(C1C=CCCC1)C(C#N)=C(N)O2 (stereo not drawn)	3.0%	-1.2%	-10.3%	-0.9%	4.6%	15.8µM*	9.8%	4.5%
CSc1cccc(NS(=O)(=O)c2ccc(-c3coc(C)n3)cc2)c1	?	-15.5%[46.1 µM]	.	-4.6%	-4.2%	8.4%	3.0%	.
CCN1CCN(CCCNC(=O)c2csc3c2CCCCC3)CC1	?	?	1.7%	-2.4%	.	13.4%	?	-3.8%
CCN(CC(=O)NCc1cccs1)C(=O)c1ccc(S(=O)(=O)Nc2cccc(C)c2C)cc1	-8.7%	-20.9%	.	-6.9%	-0.5%	-9.1%	-0.6%	.
Cc1cccc(CCNC(=O)C2CCCN(S(=O)(=O)c3cccc4nsnc34)C2)c1 (stereo not drawn)	-16.7%	-8.8%[46.1 µM]	-7.7%	-5.2%	4.1%	?	-14.7%	7.1%
O=C(CCN1C(=O)S/C(=C\c2cccs2)C1=O)NC1=NCCS1	-1.8%	-28.1%	?	-15.3%	-20.8%	-9.1%	1.1%	-8.5%
N=C1/C(=C\c2ccc(OC(=O)c3ccccc3)cc2)C(=O)N=C2SC(N3CCOCC3)=NN12	.	.	.	-13.1%	-0.9%	2.5%	-24.2%	.
COc1ccc(NC(=O)c2cccc(N3C(=O)C4C5C=CC(C5)C4C3=O)c2)c(OC)c1 (stereo not drawn)	.	.	.	1.1%	14.9%	-6.0%	-0.5%	.

Structural class: the compounds so far containing nitrogen in an aromatic ring.
compound	Lassa entry inh	Marburg entry inh	Cruzain noTriton	RE007 growth inh	SARS PLpro yeast	2A StopGo	NS1 inh	Cruzain Triton
COC(=O)Cc1[nH]nc2c1C(C1C=CCCC1)C(C#N)=C(N)O2 (stereo not drawn)	3.0%	-1.2%	-10.3%	-0.9%	4.6%	15.8µM*	9.8%	4.5%
CSc1cccc(NS(=O)(=O)c2ccc(-c3coc(C)n3)cc2)c1	?	-15.5%[46.1 µM]	.	-4.6%	-4.2%	8.4%	3.0%	.
Cc1cccc(CCNC(=O)C2CCCN(S(=O)(=O)c3cccc4nsnc34)C2)c1 (stereo not drawn)	-16.7%	-8.8%[46.1 µM]	-7.7%	-5.2%	4.1%	?	-14.7%	7.1%

(continued)
compound	Lassa entry inh	Marburg entry inh	Cruzain noTriton	RE007 growth inh	SARS PLpro yeast	2A StopGo	NS1 inh	Cruzain Triton
COc1cccc(NC(=O)CN(C)C(=O)c2ccc(-c3ccccc3Cl)o2)c1	-29.5%	2.6%	.	5.7%	-3.6%	-1.4%	-3.1%	.
CCNC(=O)C(C)Sc1ccc(Cl)cc1 (stereo not drawn)	-3.3%	20.2%	-5.6%	2.4%	0.8%	7.9%	3.5%	-8.6%
Cc1ccc(NC(=O)CSc2nc3ccccc3nc2N2CCCC2)cc1	.	.	.	-10.6%	-1.3%	16.1%	-8.3%	.
Nc1n[nH]c(C2CCCCC2)n1	.	.	.	-1.3%	0.1%	19.9%	2.5%	.
CCc1c(C)c(C#N)c2nc3ccccc3n2c1NCc1ccco1	-16.3%	?	-25.1%	-18.1%	-1.7%	?	-2.0%	-8.4%
CCn1c(=O)cc(SCC(=O)Nc2cc(OC)c(OC)c(OC)c2)c2ccccc21	-21.1%	6.8%	?	15.4%	4.5%	?	7.1%	-3.2%
CC1=C(C#N)C(NC(=O)C2CCCCC2)(C(F)(F)F)C(=O)N1 (stereo not drawn)	9.9%	-2.0%	-7.0%	8.1%	-0.9%	-22.6%	0.7%	7.3%
COc1ccc(/C=C2/CCCC(C(=O)C(F)(F)F)=C2O)cc1OC	.	.	.	3.4%	-1.7%	-9.1%	0.5%	.
COc1ccc(-c2nc(N3CCN(C)CC3)sc2-c2ccc(OC)cc2)cc1	?	?	.	5.5%	4.0%	-6.7%	10.1%	.
O=C(NC12CC3CC(CC(C3)C1)C2)OC1CN2CCC1CC2 (stereo not drawn)	2.5%	?	.	-13.3%	-0.4%	-16.0%	-0.2%	.
Cc1cc(C)cc(NC(=O)CNC(c2ccccc2)c2ccccc2)c1	?	0.6%[46.1 µM]	.	-4.5%	-32.2%	?	-29.4%	.
Cc1ccc(C(=O)O)cc1NC(=S)NC(=O)c1ccc(-c2ccccc2)cc1	-2.2%[46.1 µM]	-17.9%[46.1 µM]	.	18.7%	-1.3%	11.8%	6.6%	.
COc1ccc(C(=O)Nc2ccc(NC(=O)c3cccs3)c(OC)c2)cc1Cl	1.6%	11.8%	.	7.8%	-0.2%	-28.4%	3.0%	.
CC(=O)NCCc1ccc(C(=O)COC(=O)c2cccn2C)cc1	26.2%	2.8%	.	-22.3%	-3.0%	-22.8%	.	.
O=C(CSc1nnc(-c2cccs2)n1-c1ccccc1)N1CCCc2ccccc21	?	11.6µM*	4.5%	2.5%	-1.5%	-16.5%	11.6%	2.3%
O=C1C2C3C=CC(C3)C2C(=O)N1c1cccc(-c2nc3ccccc3o2)c1 (stereo not drawn)	15.7%	-2.2%	-5.1%	8.4%	3.0%	-10.2%	0.5%	3.2%
Cc1nn(Cc2ccccc2Cl)c(C)c1NC(=O)CCCn1nc([N+](=O)[O-])c(Cl)c1C	?	3.3%	?	-5.3%	?	-24.6%	-4.1%	-2.4%
CCOC(=O)c1c(NC(=O)COc2ccc3ccc(=O)oc3c2)sc(C(=O)N(C)C)c1C	10.2%	?	.	6.9%	-5.2%	-16.3%	-3.0%	.
COC(=O)CCC(=O)Nc1cccc2c(NC(=O)CCC(=O)OC)cccc12	5.6%	7.4%[46.1 µM]	-10.9%	-11.4%	6.5%	-19.5%	2.5%	0.7%
C=C(COC(C)=O)CC1CC(O)[C@]2(C)OC3CC4OC5C[C@]6(C)O[C@]7(C)CCC8OC9C[C@]%10(C)OC%11C(C)=CC(=O)OC%11CC%10OC9C[C@@H](C)C8OC7CC6O[C@]5(C)C/C=C\C4OC3CC2O1 (stereo partly drawn)	.	.	.	36.7%	-2.3%	-6.8%	-5.6%	.
CC(C)(C)NC(=O)C(c1ccc(F)cc1)N(Cc1ccco1)C(=O)CCC(=O)Nc1ccccn1 (stereo not drawn)	3.3%	?	.	26.4%	2.0%	-22.3%	-4.2%	.
O=C(NCCc1ccccc1)C1CCN(C(=O)c2ccc(F)cc2)CC1	.	.	.	9.8%	7.8%	-0.2%	3.2%	.
CCCCOc1ccc(C(=O)NCCOc2cccc(OC)c2)cc1	.	.	.	-9.2%	9.8%	3.5%	-0.9%	.
CCOc1ccc(-c2nc(C#N)c(NCc3ccco3)o2)cc1	3.1%[46.1 µM]	5.4%[46.1 µM]	.	-6.7%	0.7%	20.9%	.	.
O=C(COC(=O)c1ccc(Cl)cc1O)NC(=O)C1CCCCC1	9.3%	4.4%[14.2 µM]	.	-6.4%	3.1%	2.0%	.	.
O=C(NCCCn1ccnc1)c1cc(-c2ccc(Cl)cc2)nc2ccccc12	-12.7%	4.6%	5.8%	-5.2%	-11.1%	-26.1%	3.2%	-7.8%
O=C(CCNS(=O)(=O)c1ccc(OC(F)(F)F)cc1)N1CCN(S(=O)(=O)c2cccc(F)c2)CC1	5.6%	?	.	-11.8%	1.4%	-26.1%	.	.
Cc1ccc(C(=O)N/N=C/c2ccc(-c3cccc(Cl)c3)o2)cn1	-23.1%	?	.	3.7%	-1.9%	?	-6.7%	.
COc1ccccc1CNC(=O)c1cc2ccc3ccc(C)[nH]c3c2n1	-0.7%[46.1 µM]	.	-28.6%	.	.	0.0%	.	-6.7%
Cc1ccc(CN2CCNC(=O)C2CC(=O)NCCCn2ncc3ccccc32)o1 (stereo not drawn)	17.3%[46.1 µM]	1.0%[46.1 µM]	.	-0.5%	1.1%	3.8%	4.1%	.
CCOc1ccc(C2CC(c3c(O)c4ccccc4oc3=O)=NN2c2ccccc2)cc1OC (stereo not drawn)	?	-5.6%[46.1 µM]	.	17.6%	3.8%	-6.7%	.	.
CCOC(=O)c1cnc2c(OC)cccc2c1Nc1cccc(O)c1	-21.9%[46.1 µM]	-9.5%[46.1 µM]	-13.9%	.	.	25.1µM*	.	-2.2%
Cc1ccc(-c2nc(CNC(=O)c3ccco3)cs2)cc1	.	.	.	10.5%	-9.7%	8.9%	-40.7%	.
COc1ccc(C(=O)Nc2nnc(C(C)C)s2)cc1OC	?	?	-6.4%	.	.	28.7%	.	-3.8%
COc1cc(CNCc2cccs2)ccc1OCC(N)=O	10.7%	-21.7%	-3.6%	10.2%	5.9%	.	-0.3%	0.5%
COc1ccc(NC(=O)CN(C)C(=O)CCSc2ccc(C)cc2)cc1	-0.4%	-12.1%	.	7.3%	4.1%	3.8%	.	.
COc1ccc(-c2csc(N)n2)cc1	-21.3%	?	-25.8%	-8.8%	-55.7%	40.7%[activator]	-7.0%	-4.0%
COc1ccc(Cl)cc1NC(=O)C1CCN(S(=O)(=O)c2ccc(F)cc2)CC1	-28.6%[46.1 µM]	-16.2%[46.1 µM]	8.1%	.	.	0.0%	.	-6.2%
CCOc1ccc(N=Nc2c(=O)[nH]n3c(=O)c4c([nH]c23)CCCC4)cc1	-3.5%	15.7%	12.0%	-6.5%	-8.4%	-14.3%	12.0%	-6.3%
Nc1cc(Cl)ccc1N1CCOCC1	22.4%	-5.6%[46.1 µM]	-3.5%	-4.3%	-2.2%	5.0%	-0.5%	1.2%

An excerpt of these results, field by field:
CCOc1ccc(N=Nc2c(=O)[nH]n3c(=O)c4c([nH]c23)CCCC4)cc1
  Lassa entry inh: -3.5%	Marburg entry inh: 15.7%	Cruzain noTriton: 12.0%	RE007 growth inh: -6.5%	SARS PLpro yeast: -8.4%	2A StopGo: -14.3%	NS1 inh: 12.0%	Cruzain Triton: -6.3%

Nc1cc(Cl)ccc1N1CCOCC1
  Lassa entry inh: 22.4%	Marburg entry inh: -5.6%[46.1 µM]	Cruzain noTriton: -3.5%	RE007 growth inh: -4.3%	SARS PLpro yeast: -2.2%	2A StopGo: 5.0%	NS1 inh: -0.5%	Cruzain Triton: 1.2%
